gsp antag: antagonizes gsp, the McCune-Albright syndrome mutation; gsp-mutant cells, cAMP HTRF, 30 min; control for the full effect not named in the record; Potency, µM (top dose mostly 76.9 µM), for the others: at the highest dose activity change, negative = inhibition, most hits filed as inhibitors; 0.4% of 340,000 active; AID 624288; active = falling curve of any shape with a large fitted effect; inconclusive = falling curve, mostly with a smaller effect; inactive = flat or rising curve; cell line not stated here;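 also: intracellular cAMP measured with PDE inhibitor Ro 20-1724 present during compound exposure; potency is read from the fitted curve at half-maximal effect; % is scaled to controls: 0 for no effect and ±100 for the full control effect; nearly all actives have a fitted effect of over 65% in size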
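Measurement of cellular cAMP by homogeneous time-resolved fluorescence following a 30 min compound exposure at 37C. The PDE inhibitor […] was present throughout; the assay buffer was DPBS with 0.05% BSA and 0.005% Tween 20.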
gsp ag: agonists of gsp mutant (McCune-Albright syndrome); Potency, µM (doses to about 76.9 µM), for the others: top-dose activation (cAMP increase), most hits filed as activators; 0.13% of 340,000 active; gsp mutant cells, cAMP HTRF, 30 min; control for the full effect not named in the record; AID 624287; active = well fitted activation curve with a large enough effect; inconclusive = small, poorly fitted or top-dose-only effect, or another doubt; inactive = no such curve, though single readings can be large or run the other way; cell line not stated here;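 also: phosphodiesterase inhibitor Ro 20-1724 added with compounds to block cAMP breakdown; potency is read from the fitted curve at half-maximal effect; nearly all actives have a fitted effect of over 60% in size; about a fifth of the inactives were tested at one dose only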
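Cells in DMEM/10% FBS with G418 were pretreated with compounds in DMSO plus […] (300 uM stock) for 30 min at 37C. cAMP was measured by HTRF (cAMP-d2 plus anti-cAMP antibody-K) after 30 min at room temperature.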
ClpP mod: qHTS Assay for Activators of ClpP; 1.9% of 340,000 active; AID 651965, 2013; Potency, µM (series often up to 57.5 µM), for inactives: at the top dose activity change, negative = active; purified B. subtilis ClpP, FRET peptide cleavage, 20 min; active = well fitted falling curve with a large enough effect; inconclusive = small, poorly fitted or top-dose-only effect; inactive = no such curve, though single readings can be large or run the other way; also: potency is read from the fitted curve at half-maximal effect; the source files actives as falling curves though it sought activators and does not explain the sign; nearly all actives have a fitted effect of over 65% in size; many hits overshoot -100%
Target sequence (P80244 whole entry, looked up): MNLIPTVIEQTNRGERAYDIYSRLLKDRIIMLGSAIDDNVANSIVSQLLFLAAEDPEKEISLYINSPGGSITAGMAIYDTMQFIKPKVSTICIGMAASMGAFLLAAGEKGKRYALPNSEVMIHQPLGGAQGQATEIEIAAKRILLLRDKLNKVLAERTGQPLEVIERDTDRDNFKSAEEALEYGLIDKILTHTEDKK
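FRET quenching reversal measured ClpP activation: 10 microg/mL B. subtilis ClpP at pH 8 with the FRET-FV decapeptide, read at 430 nm after 320 nm excitation. The 20-min minus 0-min signal was scaled between DMSO/no-enzyme wells and ADEP (5.8 microM final).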
D2 ag: human D2 receptor agonism in beta-arrestin assay. AID 624465. DiscoveRx PathHunter D2 beta-arrestin, luminescence, 90 min; 100% = 57 uM dopamine signal. activation, % (no concentration beside the values). 0.084% of 360,000 active; in the data active = activation above about 40%; inconclusive = about 15% to 40%; inactive = below about 15%; also: compound concentration not given in the record; the text of the record calls up to 30% inactive
Target sequence (P14416 whole entry, looked up): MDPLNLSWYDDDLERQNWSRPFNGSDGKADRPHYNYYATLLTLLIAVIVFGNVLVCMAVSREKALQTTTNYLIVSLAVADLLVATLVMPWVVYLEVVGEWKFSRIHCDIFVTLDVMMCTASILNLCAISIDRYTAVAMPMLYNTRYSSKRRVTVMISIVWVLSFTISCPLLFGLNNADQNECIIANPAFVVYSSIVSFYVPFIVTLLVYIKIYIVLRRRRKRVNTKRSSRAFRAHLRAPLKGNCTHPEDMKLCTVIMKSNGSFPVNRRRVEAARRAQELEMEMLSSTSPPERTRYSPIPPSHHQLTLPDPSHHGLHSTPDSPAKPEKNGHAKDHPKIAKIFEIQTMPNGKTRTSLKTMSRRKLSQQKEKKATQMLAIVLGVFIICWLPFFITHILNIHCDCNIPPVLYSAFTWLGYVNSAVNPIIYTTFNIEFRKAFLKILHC
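DiscoveRx PathHunter D2 beta-arrestin cells (2,100/well) attached overnight, then compound-stimulated 90 min at 37 C in HBSS/10 mM HEPES/0.1% Tween-20 buffer; beta-galactosidase complementation read by luminescence after 1 h at ambient temperature. Dopamine 57 uM final (EC100) as control.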
Menin MLL FP FL: menin-MLL binding inhibition, fluorescein peptide; Fluorescence polarization, fluorescein-MLL peptide displacement from menin; FP activity change, % at 61.4 µM; 290,000 tested, under 10 active; AID 1766; inconclusive = falling polarisation curve, or a change in total fluorescence; inactive = total fluorescence flat and polarisation flat or rising; no compound was filed as active; the % refers to the polarisation; negative = inhibition;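 also: % of control where 0% means no effect; inhibitors lower the polarisation; unlabelled MLL peptide was the positive control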
PINK1 modulator: changes PINK1 expression. 0.2% of 410,000 active. AID 624263. PINK1 immunofluorescence, high-content cytometry, 24 h. Potency, µM (highest dose often 76.6 µM), inactives show top-dose activation (PINK1 increase), usual class: activators; active = well fitted activation curve with a large enough effect; inconclusive = small, poorly fitted or top-dose-only effect; inactive = flat fitted curve, though single readings scatter; cell line not stated here;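 also: potency is read from the fitted curve at half-maximal effect; % of control where 0% means no effect; nearly all actives have a fitted effect of over 65% in size; a mitochondrial uncoupler was the plate control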
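Cells are seeded, rested 12 hours, then given compound at five concentrations or DMSO for 24 hours. After fixation, blocking and antibody staining, PINK1 amount and mitochondrial localization are scored; CCCP serves as control.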
Sfp inh: blocks B. subtilis Sfp PPTase activity | Q9F4F7 | Biochemical Sfp PPTase activity, qHTS | Potency, µM, for inactives: max response, negative = inhibition, hits mostly inhibitors | 3.5% of 310,000 active | AID 1490; active = well fitted inhibition curve with a large enough effect; inconclusive = small, poorly fitted or top-dose-only effect, or another doubt; inactive = no such curve, though single readings can be large or run the other way;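 also: the enzyme is Sfp with the accession as filed and its product quenches rhodamine fluorescence; potency is read from the fitted curve at half-maximal effect; 0% = enzyme reaction without inhibitor and -100% = no enzyme wells; top concentration of the series not given in the record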
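Buffer: 50 mM Hepes-Na pH 7.6, 10 mM MgCl2, 0.01% Nonidet P-40, 0.01% BSA. Enzyme 15 nM, pre-exposed to compound 15 min; substrates then added and fluorescence change tracked over 30 min.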
* = called active by the depositor; & = joins results of further samples; [ ] = dose if it differs, or a comment.

Screening CCn1c(Cc2ccccc2)nnc1SCC(=O)NC1CCCC1 returned gsp antag 2.7%, gsp ag -18.8%, ClpP mod -2.0%, D2 ag -3.3, Menin MLL FP FL 0.9, PINK1 modulator -0.2% and Sfp inh 13.9%.
Screening CCc1nnc(NC(=O)CSc2nc3ccccc3s2)s1 returned gsp antag -4.4%, gsp ag -33.5%[inhibitor], ClpP mod -2.6%, D2 ag -4.7, Menin MLL FP FL 1.6, PINK1 modulator 0.1% and Sfp inh 4.5%.
`CN(C(=O)c1cccc(NC(=O)Cc2ccc(NC(=O)C3CCN(C(=O)C4CCCCC4)CC3)cc2)c1)C1CCCCC1` gave gsp antag 4.9%, ClpP mod 1.0%, D2 ag 0.0 and PINK1 modulator inconclusive.
COc1ccc(N2CCN(C(=O)CSc3ccccc3)CC2)cc1 was read as gsp antag -21.5%, gsp ag 8.8%, ClpP mod -2.5%, D2 ag 0.7, Menin MLL FP FL -1.4, PINK1 modulator -1.4%[38.3 µM] and Sfp inh -3.6%.
COc1nc(C)cc(C)c1S(=O)(=O)c1ccccc1C was read as gsp antag -5.8%, gsp ag -9.6%, D2 ag 4.0, Menin MLL FP FL -1.0, PINK1 modulator 7.3% and Sfp inh 4.2%.
For COc1ccc(NS(=O)(=O)c2cccc(C(=O)OCC(=O)Nc3cc(C)on3)c2)cc1 the results were gsp antag -7.1%, gsp ag 0.5%, ClpP mod -1.0%, D2 ag 2.1, Menin MLL FP FL 0.0, PINK1 modulator -0.7% and Sfp inh -15.9%.
`CC1(C)OC(=O)C(=NNc2ccc(Cl)cc2)C(=O)O1` gave gsp antag -30.2%, gsp ag 16.5%, ClpP mod -0.1%, D2 ag -2.1, Menin MLL FP FL 0.6, PINK1 modulator -2.9%[38.3 µM] and Sfp inh 1.0%.
CC(C)C[C@H]1CN([C@@H](Cc2ccccc2)CN2CCC[C@@H]2CN2C(=O)C(=O)NC[C@@H]2Cc2ccccc2)C(=O)C(=O)N1CCc1ccccc1 was read as ClpP mod 3.2%, D2 ag 0.9 and PINK1 modulator 1.0%.
COc1ccc(S(=O)(=O)N2CCN(c3nn(C)c(=O)n(C)c3=O)CC2)cc1 was read as gsp antag 8.5%, gsp ag 0.7%, ClpP mod -1.5%, D2 ag -0.8 and PINK1 modulator 1.4%.
`COc1ccccc1OCCn1nnc2ccccc21` gave gsp antag -5.6%, gsp ag 10.3%[15.4 µM], ClpP mod -0.5%, D2 ag 4.7, Menin MLL FP FL -1.4, PINK1 modulator 0.0% and Sfp inh 16.1%.
COc1cccc(-c2ncc3ccccc3c2COC(=O)c2ccccc2C(=O)O)c1 was read as gsp antag -14.6%, ClpP mod -2.7%, D2 ag 5.6 and PINK1 modulator 1.5%.
For CC(C)Nc1nc(-c2ccccc2)nnc1-c1ccccc1 the results were gsp antag inconclusive, gsp ag -33.7%[inhibitor], ClpP mod -0.5%, D2 ag -2.8, Menin MLL FP FL 0.0, PINK1 modulator 0.4% and Sfp inh 3.6%.
Screening CCN(CC)C(=O)COc1ccc(/C(C)=N/NC(=O)c2ccccc2-n2cccc2)cc1 returned gsp antag -2.3%, gsp ag inconclusive, ClpP mod -2.4%, D2 ag 0.8, PINK1 modulator 1.6% and Sfp inh 8.5%.
C=CCNc1c2c(nc3ncnn13)CC(C)CC2 (stereo unspecified) was read as gsp antag 2.5%, gsp ag inconclusive, ClpP mod 0.9%, D2 ag -2.0, Menin MLL FP FL 4.2, PINK1 modulator 0.3% and Sfp inh 7.8%.
`CC1CCN(S(=O)(=O)c2ccc3c(c2)oc(=O)n3C)CC1` gave gsp antag 6.9%, gsp ag inconclusive, D2 ag -4.6, Menin MLL FP FL 5.0, PINK1 modulator 5.6% and Sfp inh 9.0%.
Screening COC(=O)/C=C1\SC(=NC(=O)c2ccc(C)cc2)NC1=O returned gsp antag -23.1%, gsp ag 8.0%[15.4 µM], D2 ag -10.9, Menin MLL FP FL -0.6, PINK1 modulator 0.9% and Sfp inh 35.5µM*.
`CCOC(=O)c1sc(=NC(=O)c2ccccc2Br)n(C)c1C` gave gsp antag -5.8%, gsp ag inconclusive, ClpP mod -12.4%, D2 ag 2.3, PINK1 modulator 4.6% and Sfp inh 20.0%.
For O=C(CCN1C(=O)/C(=C/c2ccccc2)SC1=S)N1CCCCCC1 the results were gsp antag -9.9%, gsp ag -7.8%[15.4 µM], D2 ag -6.2, Menin MLL FP FL 5.8, PINK1 modulator 0.0% and Sfp inh 2.6%.
COCCN(C(=O)CSc1nc2ccc(OC)cc2[nH]1)c1c(N)n(Cc2ccccc2)c(=O)[nH]c1=O was read as gsp antag 7.5%, gsp ag -7.0%, ClpP mod 1.6%, D2 ag -5.6 and PINK1 modulator 2.3%.
Screening Cc1ccc(C(=O)CCC(=O)Nc2cccc(C(F)(F)F)c2)cc1C returned gsp antag -16.8%, gsp ag 14.6%, ClpP mod -0.8%, D2 ag 0.9 and PINK1 modulator 0.7%.
Screening O=C(Nc1nnc(-c2ccccc2Cl)s1)c1ccccc1F returned gsp antag -25.3%, gsp ag inconclusive, ClpP mod -18.7%, D2 ag -1.0, Menin MLL FP FL 2.5, PINK1 modulator 5.4% and Sfp inh -0.2%.
For COc1ccc(C[C@](C)(N)C(=O)O)cc1OC the results were gsp antag 0.6%, ClpP mod -0.9%, D2 ag -3.3 and PINK1 modulator 0.4%.
For C=CCn1c(Cc2cccs2)nnc1SCC(=O)Nc1ccc(OC)c(OC)c1 the results were gsp antag -19.8%, gsp ag 3.7%, ClpP mod -0.6%, D2 ag 1.8, Menin MLL FP FL 0.9, PINK1 modulator -3.1% and Sfp inh 8.1%.
Screening Cc1ccc(CNC(=O)C2CCC(=O)N(Cc3cccc(F)c3)C2)s1 (stereo unspecified) returned gsp ag -17.6%, ClpP mod 1.8%, D2 ag -1.4 and PINK1 modulator -0.3%.
Screening COc1ccc2cc(C(=O)NCC(=O)O)sc(=O)c2c1OC returned gsp antag 3.0%, gsp ag 14.2%[15.4 µM], ClpP mod -1.8%, D2 ag -5.3, Menin MLL FP FL 3.1, PINK1 modulator -2.1% and Sfp inh 9.5%.
For c1ccc(Nc2ncnc3ccc(-c4ccoc4)cc23)cc1 the results were Menin MLL FP FL 12.5, PINK1 modulator -0.9% and Sfp inh -6.3%.
Screening CN(N)c1nc(-c2ccccc2)nnc1C(F)(F)F returned gsp antag -0.2%, gsp ag inconclusive, ClpP mod -1.3%, D2 ag -0.3, Menin MLL FP FL 0.4, PINK1 modulator -3.4% and Sfp inh 20.5%.
Screening O=[N+]([O-])c1ccc(CS(=O)(=O)N2CCN(c3ccccc3)CC2)cc1 returned gsp antag 15.2%, gsp ag -5.6%, D2 ag -1.5, Menin MLL FP FL -7.5, PINK1 modulator 0.6% and Sfp inh -1.0%.
`O=C(c1ccco1)N1CCN(Cc2cccc3ccccc23)CC1` gave gsp antag -5.3%, gsp ag -26.9%, D2 ag 14.3, Menin MLL FP FL -3.4, PINK1 modulator 0.0% and Sfp inh inconclusive.
`O=S(=O)(c1ccccc1Cl)N1CCCC1c1nc(-c2ccc(Cl)cc2)no1` (stereo unspecified) gave gsp antag -18.2%, gsp ag 12.9%, ClpP mod -2.7%, D2 ag -0.2, Menin MLL FP FL 0.2, PINK1 modulator 3.9% and Sfp inh -4.0%.
`NS(=O)(=O)c1ccccc1NC(=S)Nc1ccccc1S(N)(=O)=O` gave gsp antag 7.1%, gsp ag -16.0%, ClpP mod -3.7%, D2 ag 13.3, Menin MLL FP FL -2.4, PINK1 modulator 0.9% and Sfp inh 11.6%.
CCOC(=O)c1c(NC(=O)CC)sc(C(=O)NC2CCCC2)c1C was read as gsp ag 22.6%[15.4 µM], D2 ag 1.7, Menin MLL FP FL -1.0, PINK1 modulator 0.2% and Sfp inh -0.9%.
O=C(CC1CCCC1)Nc1cccc(Br)c1 was read as gsp antag -6.5%, gsp ag -4.2%, D2 ag -2.1, PINK1 modulator 4.5% and Sfp inh -4.3%.
Cc1c(C2(O)CCCCC2)[nH]c2ncccc12 was read as gsp antag 6.1%, gsp ag 14.1%, ClpP mod -11.0%, D2 ag -2.7 and PINK1 modulator -0.4%.
`O=S(=O)(c1cccs1)N1CN(Cc2ccc(Cl)cc2)c2nc3ccccc3nc21` gave gsp antag -3.2%, gsp ag -31.1%[inhibitor], ClpP mod 5.4%, D2 ag -1.7, Menin MLL FP FL 3.2, PINK1 modulator 10.9% and Sfp inh 13.2%.
Screening COC(=O)c1cc(OC)c(OC)cc1NC(=S)Nc1cccc(C(C)=O)c1 returned gsp antag -14.2%, gsp ag -2.6%, ClpP mod -2.6%, D2 ag 1.4, Menin MLL FP FL 3.7, PINK1 modulator 0.1% and Sfp inh -16.2%.
COc1ccc2nc(NC(=O)c3ccc([N+](=O)[O-])o3)sc2c1 was read as gsp antag -12.1%, gsp ag -2.9%[15.4 µM], ClpP mod -0.2%, D2 ag 9.4, Menin MLL FP FL -0.3, PINK1 modulator -0.4% and Sfp inh 5.9%.
Screening Cc1cc(C)c(NC(=O)COc2cccnc2[N+](=O)[O-])c(C)c1 returned gsp antag 15.5%, gsp ag -29.8%, ClpP mod -0.5%, D2 ag 2.1 and PINK1 modulator 1.4%.
`COc1ccc(C2C(C#N)=C(C)NC3=C2S(=O)(=O)c2ccccc23)cc1` (stereo unspecified) gave gsp antag -4.5%, gsp ag 19.5%, ClpP mod -16.8%, D2 ag -4.1, Menin MLL FP FL 4.2, PINK1 modulator -2.2% and Sfp inh 4.3%.
`Cn1c(=O)c(C(=O)NCCCc2ccccc2)c(O)c2ccccc21` gave gsp antag -1.7%, gsp ag -7.4%, ClpP mod inconclusive, D2 ag 1.5, Menin MLL FP FL -1.0, PINK1 modulator -1.9% and Sfp inh -8.0%.
Screening CCCCN(CC)CCNC(=O)c1nn(-c2ccc(OC)cc2)c(=O)c2c1c1ccccc1n2C returned gsp antag -8.9%, gsp ag -4.1%[15.4 µM], ClpP mod -5.7%, D2 ag -1.1, Menin MLL FP FL -3.3, PINK1 modulator 2.8%&0.5% and Sfp inh -8.0%.

High-throughput results from PubChem.
